# quorum sensing = Vibrio cholerae quorum sensing activators, luminescence (AID 686977) | V. cholerae quorum sensing reporter, luminescence, 6 h; higher luminescence means a stronger effect; most inactives read 0 | luminescence at 50 µM unless noted, or EC50 in µM where a hit was titrated | 9,400 tested, under 10 active;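 active = light above mean plus 3 SD and confirmed in a dose series; inconclusive = above that limit without a clear retest; inactive = below it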;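 also: raw light counts without normalisation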
# * = called active by the depositor; ? = inconclusive; [ ] = dose if it differs, or a comment. This is a subset (hit frequency here may not be typical).
smiles | quorum sensing
N#CCSc1nnc(Cc2cccs2)n1C1CCCCC1 | 0
CC(C)Cn1c2c(c(O)c(C(=O)Nc3nccs3)c1=O)CCCC2 | 0
Cc1noc(C)c1S(=O)(=O)N(CC(=O)NCc1ccc2c(c1)OCO2)c1ccc(C(C)C)cc1 | 0
COc1ccc(N(CC(=O)Nc2ccc(F)c(Cl)c2)S(=O)(=O)c2c(C)noc2C)cc1 | 0
C=CCNC(=S)NNC(=O)C(CCC(C)C)CC(C)O (stereo not drawn) | 0
CN1C(C)(C)CCCC1(C)C | 0[10 µg/mL]
C=CCN1CC[C@]23c4c5ccc(O)c4O[C@H]2C(=O)CC[C@@]3(O)[C@H]1C5 | 0[10 µg/mL]
Cc1ccc(-n2nnnc2SCC(=O)Nc2ccc3c(c2)COC3=O)cc1C | 40
O=C(C1CCC(=O)N1C1CCCCC1)N1CCN(c2ccc(F)cc2)CC1 (stereo not drawn) | 0
CCN(CC)S(=O)(=O)c1ccc2c3c(cccc13)C(=O)N2 | 40
CCC(=O)Nc1cc(C(=O)NCC2CCCN2CC)c(OC)cc1N(C)C (stereo not drawn) | 40
CC(NC(=O)c1cccs1)c1ccc2c(c1)OCO2 (stereo not drawn) | 0
Cc1csc(NC(=O)C2CCCN(S(=O)(=O)c3cnc[nH]3)C2)n1 (stereo not drawn) | 40
Cc1ccc(-n2nc(C)c3cc(C(=O)O)sc32)cc1 | 40
Cc1ncc([N+](=O)[O-])n1CCO | 40[10 µg/mL]

# Going on with the list:
smiles | quorum sensing
CC1CCc2cc(F)ccc2N1C(=O)c1cnc2sccn2c1=O (stereo not drawn) | 0
Cc1cccc(NC(=O)CN2NS(=O)(=O)c3ccccc3C2=O)c1 | 0
Clc1ccc(OCCN2CCCCC2)c(Cl)c1 | 40
CCOC(=O)c1ccccc1NC(=O)CC(C)CC(=O)O (stereo not drawn) | 0
COc1ccc(-c2nc(CCNC(=O)c3ccco3)cs2)cc1OC | 0
CCC(C)(C)NC(=O)C(c1ccco1)N(C(=O)Cn1nnc2ccccc21)c1ccc2c(c1)OCO2 (stereo not drawn) | 40
COc1ccc(OC)c(NC(=O)C2CC(C)=C(C)CC2C(=O)O)c1 (stereo not drawn) | 40
CC1=CC(C)(C)N(S(=O)(=O)c2ccc(F)cc2)c2ccccc21 | 0
CCN(CC)C(c1ccc(F)cc1)c1nnnn1CC1CCCO1 (stereo not drawn) | 0
CCN(CC)CCOC(=O)c1cccc(OC)c1 | 280
CCC(=O)Nc1cc2c(C)cc(=O)oc2cc1C | ?
COc1ccc(CCNC(=O)c2c(C)noc2C)cc1 | 0
COc1cccc(CNc2ccc3c(c2)CCC3)c1 | 200
Cn1nc(-c2ccc(Cl)cc2)c2cc(C(=O)NCCCN3CCOCC3)sc21 | 0
CCOC(=O)c1oc2cc(C)cc(O)c2c(=O)c1-c1csc(C)n1 | 0

# Remaining list, next part
smiles | quorum sensing
C/C(=C(\CCOP(=O)(O)O)SC(=O)c1ccccc1)N(C=O)Cc1cnc(C)nc1N | 0[10 µg/mL]
CCCCS/C(N)=N/N=C/c1cc(C)ccc1O | 0
O=C(O)c1ccccc1C(=O)c1cccs1 | 0
CCOc1ccc(-c2nc(N)nc(C)c2-c2ccc(OC)c(OC)c2)c(O)c1 | 0
Cc1cc(C(=O)COC(=O)CCc2nc3ccccc3s2)c(C)n1C | 0
COc1ccc(C2C3=C(CC(c4ccco4)CC3=O)Nc3ccccc3N2C(C)=O)cc1 (stereo not drawn) | 0
COc1ccc(C2CC(=O)c3cnc(NC(=O)c4ccccc4)nc3C2)cc1OC (stereo not drawn) | 0
CN(C)c1ccc(CNC(=O)CN(C)S(=O)(=O)c2cccc3cccnc23)cc1 | 0
CCOc1ccc(OCC)c(NC(=O)C2CCCN(S(=O)(=O)c3c(C)n[nH]c3C)C2)c1 (stereo not drawn) | 40
COC(=O)[C@H](CCSC)NC(=O)NCCc1ccccc1F | 0
Cc1cccc(CSC2=NCCN2C(=O)c2ccc(Br)o2)c1 | 0
O=C(Cn1cc2c(n1)CCCC2)NCc1cccc(Cl)c1 | 40
CC1CCCCC1NC(=O)CC1Oc2ccccc2NC1=O (stereo not drawn) | 0
Brc1ccccc1-c1nnc(COc2cccc3cccnc23)o1 | 40
CCC(C)(C)n1nnnc1C(c1ccc2ncccc2c1)N1CCN2CCCC2C1 (stereo not drawn) | 0

# More structures
smiles | quorum sensing
CCOC(=O)c1csc(NC(=O)C2CCCCC2)n1 | 40
Cc1cc(C(F)(F)F)c2c(N)c(C(=O)Nc3cc(C)on3)sc2n1 | 40
Cc1ccc(-n2cnc3c(sc4nccc(N(C)C)c43)c2=O)cc1 | 0
CC(=O)c1sc(NC(=O)c2cccc3ccccc23)nc1C | 0
COc1ccccc1-n1c(=O)[nH]c2c(C(N)=O)nc(C3CCCCC3)nc21 | 0
O=C(O)CCN1C(=O)c2ccncc2C1=O | 0
C[C@](N)(Cc1ccc(O)c(O)c1)C(=O)O | 0[10 µg/mL]
CC1CCN(S(=O)(=O)N2CCC(C(=O)N3CCC(N(C)CC4CCCO4)CC3)CC2)CC1 (stereo not drawn) | 0
N#Cc1c(-c2ccco2)nc(SCC(=O)Nc2cccc(Cl)c2)[nH]c1=O | ?
O=C1[C@@H]2[C@H](C(=O)N1Cc1ccco1)[C@H]1C=C[C@@H]2C1 | 0
CCCNC(=O)C1CC(=O)N(c2ccc(OCC(=O)Nc3cccc(C)c3C)cc2)C1 (stereo not drawn) | 0
COc1cccc(N2CCN(CC(=O)NCc3cccs3)CC2)c1 | 40
COCCNc1nnc(SCC(=O)c2ccc3c(c2)OCO3)s1 | 80
Cc1cc(Cl)ccc1OCc1n[nH]c(=S)n1C1CCCCC1 | 0
CC1CC(=O)C2=C(C1)OC(N)=C(C#N)C2c1coc2ccccc2c1=O (stereo not drawn) | 40

# The closing seven entries of the section before come first, to join the parts:
smiles | quorum sensing
N#Cc1c(-c2ccco2)nc(SCC(=O)Nc2cccc(Cl)c2)[nH]c1=O | ?
O=C1[C@@H]2[C@H](C(=O)N1Cc1ccco1)[C@H]1C=C[C@@H]2C1 | 0
CCCNC(=O)C1CC(=O)N(c2ccc(OCC(=O)Nc3cccc(C)c3C)cc2)C1 (stereo not drawn) | 0
COc1cccc(N2CCN(CC(=O)NCc3cccs3)CC2)c1 | 40
COCCNc1nnc(SCC(=O)c2ccc3c(c2)OCO3)s1 | 80
Cc1cc(Cl)ccc1OCc1n[nH]c(=S)n1C1CCCCC1 | 0
CC1CC(=O)C2=C(C1)OC(N)=C(C#N)C2c1coc2ccccc2c1=O (stereo not drawn) | 40
CC1CCN(S(=O)(=O)c2cccc(-c3csc(-c4cccnc4)n3)c2)CC1 | 0
CCCC(=O)Nc1ccc(OCC(O)CNC(C)C)c(C(C)=O)c1 (stereo not drawn) | 0[10 µg/mL]
CCOc1cccc(NCc2cc3c(C(C)(C)C)nn(-c4ccccc4)c3[nH]c2=O)c1 | 80
Cc1cc(C(=O)Cn2nnc3ccccc3c2=O)c(C)n1-c1c(C)n(C)n(-c2ccccc2)c1=O | 320
COc1ccc(S(=O)(=O)NCc2ccc3c(c2)cc(C)n3C)cc1 | 0
CN(C)/C=N/c1c(C(=O)NCc2ccccc2)nnn1Cc1ccccc1 | 0
Cn1c(=O)[nH]c(=O)c2c1nc(NC1CCCCC1)n2CC(=O)NC1CCCCC1 | 40
COc1ccc2ccccc2c1C1CC(=O)N2CN(C3CCCCC3)CSC2=C1C#N (stereo not drawn) | 0
COc1cc(CC(=O)NCc2cccs2)cc(OC)c1OC | 320
CCOC(=O)C(C(=O)OCC)C(C)C#CCN1CCCCC1 (stereo not drawn) | 0
COc1ccc(S(=O)(=O)N2CCC(C(=O)NCc3ccco3)CC2)cc1 | 0
Clc1ccc(OCCSc2nnnn2C2CCCCC2)cc1 | 40
CCN1CCN(c2nc(-c3ccncc3)nc3ccccc23)CC1 | 40
CCN1CCN(C(=O)Cn2c(=O)sc3ccccc32)CC1 | 40
CO[C@H](C)C(O)(C(=O)OCC1=CCN2CC[C@H](O)[C@@H]12)C(C)C (stereo partly drawn) | 0[10 µg/mL]

# Next results:
smiles | quorum sensing
N=C(N)c1ccc(OCCCCCOc2ccc(C(=N)N)cc2)cc1 | 0[10 µg/mL]
O=S(=O)(O)c1cc(O)ccc1O | 0[10 µg/mL]
CS(=O)(=O)C1=C(O)C(=O)N(c2ccccc2)C1c1ccccc1 (stereo not drawn) | 0
CSc1nnc(-c2cnccn2)n1C | 40
Nc1nonc1-c1noc(CCCN2C(=O)c3ccccc3C2=O)n1 | 40
CCCCc1ccc(Nc2nc(CCC)cc(=O)[nH]2)cc1 | 0
COC(=O)c1c(C)[nH]c(C)c1-c1ccccc1Cl | 0
CC(C)Oc1ccc(C(CC(=O)NCc2ccco2)c2ccccc2)cc1 (stereo not drawn) | 0
CCOC(=O)CNc1nc(-c2ccncc2)nc2ccccc12 | 0
O=C(NCc1ccco1)c1ccc(C(=O)NCc2ccco2)s1 | 40
O=C(NCC1CCCO1)c1ccc2c(=O)n(CCc3ccccc3)c(=O)[nH]c2c1 (stereo not drawn) | 40
N=c1c(S(=O)(=O)c2ccccc2)cc2c(=O)n3ccccc3nc2n1CC1CCCO1 (stereo not drawn) | 0
Cc1ccc(C(c2sc3nc(C)nn3c2O)N2CC(C)OC(C)C2)cc1 (stereo not drawn) | 0
CC1CCCN(S(=O)(=O)c2ccc(NC(=O)Cn3nnc(-c4ccccc4F)n3)cc2)C1 (stereo not drawn) | 0
Cc1cc(=O)oc2cc(NC(=O)c3cc4ccccc4o3)ccc12 | 0

# Fetched by structure from above, 3 records:
smiles | quorum sensing
CC1CCN(S(=O)(=O)c2cccc(-c3csc(-c4cccnc4)n3)c2)CC1 | 0
CCN(CC)C(c1ccc(F)cc1)c1nnnn1CC1CCCO1 (stereo not drawn) | 0
CCC(=O)Nc1cc2c(C)cc(=O)oc2cc1C | ?

# (listing goes on)
smiles | quorum sensing
Cc1cccc(OCCn2c(=O)n(C)c3ccccc32)c1 | 40
CN(CCNC(=O)c1cc2c(=O)n(C)c3ccccc3c2n1C)Cc1ccccc1 | 40
CN1/C(=C/C=N/n2cnnc2)C(C)(C)c2ccccc21 | 0
CCOc1cccc2c1OC1(C)CC2NC(=O)N1c1cccc(Cl)c1 (stereo not drawn) | 0
C[C@@H]1NC(=O)NC1=O | 200[10 µg/mL]
Cc1cc2nc3c(c(=O)n2[nH]1)CCCC3 | 0
COc1ccc(OC)c(CNC(=O)Cc2c(C(=O)O)[nH]c3ccccc23)c1 | 0
COc1cccc(CNc2cc(CSc3ccc(Cl)cc3)nc(C)n2)c1 | ?
COCCNS(=O)(=O)c1ccc2c(c1)oc(=O)c1cc(S(=O)(=O)NCCOC)ccc12 | 0
CCC1Oc2ccc(C)cc2N(CC(=O)NCC2COc3ccccc3O2)C1=O (stereo not drawn) | 40
O=C(Nc1nnc(-c2ccccc2)o1)C1CCCCC1 | 0
CC(=O)Nc1ccccc1N(C)S(=O)(=O)c1ccc(C)cc1 | 40
CCCn1c2c(c(O)c(C(=O)Nc3ccccc3)c1=O)CCCC2 | 0
c1ccc2[nH]c(CCNC3CCCCC3)nc2c1 | 40
COc1cccc(CNc2ccc(F)c(Cl)c2)c1OC | 0

# (next part)
smiles | quorum sensing
CC1(C)CC(=O)C2=C(C1)N(Cc1cccnc1)C(=O)C2(NC(=O)C1CC1)C(F)(F)F (stereo not drawn) | 0
Cc1ccc(CNc2ncccc2-c2nc3cc(Cl)ccc3o2)cc1 | 0
COc1ccc(C(=O)N2CCN=C2SCc2cccnc2)c(OC)c1 | 40
Cc1csc(NC(=O)CN(C)S(=O)(=O)c2cccc3cccnc23)n1 | 40
Cc1n[nH]c(C)c1S(=O)(=O)N1CCCC(C(=O)NC2CCCc3ccccc32)C1 (stereo not drawn) | 0
CCC(NC(=S)NCc1ccccc1)C(=O)O (stereo not drawn) | 40
CCOC(=O)C1CCCN(c2c(Nc3cc(C)cc(C)c3)c(=O)c2=O)C1 (stereo not drawn) | 40
CCSc1nnc(NC(=O)C(C)(C)C)s1 | 0
Cc1sc(NC(=O)c2ccc(Br)s2)c(C(N)=O)c1C | 0
COc1ccc(CNC(=O)c2cc3c(s2)CS(=O)C3)cc1 (stereo not drawn) | 280
NS(=O)(=O)c1cc2c(cc1Cl)NCNS2(=O)=O | 0[10 µg/mL]
O=S(=O)(c1ccc(F)cc1)N(CCO)CC(O)Cn1c2ccccc2c2ccccc21 (stereo not drawn) | 0
COc1ccc(N2C(=O)CC(N3CC=C(c4ccccc4)CC3)C2=O)cc1 (stereo not drawn) | 0
CCc1c(C)sc(NC(=O)c2cc(C3CC3)on2)c1C#N | 0
c1ccc2c(CNn3cnnc3)cccc2c1 | 0

# Later entries:
smiles | quorum sensing
CCc1ccc(CCC(=O)Nc2nnc(C)s2)o1 | 40
CCCCOCCCNC(=O)Cc1cccs1 | 0
O=C1N/C(=N\N=C\c2cccnc2)SC1Cc1ccc(SC(F)F)cc1 (stereo not drawn) | 0
COC(=O)NC1CCS(=O)(=O)C1 (stereo not drawn) | 0
CC(=O)Nc1nnc(C)s1 | ?
CCOc1cc2c(C#N)c(N3CCNCC3)nc(N)c2c(N)n1 | 40
Fc1ccccc1C(c1nnnn1Cc1ccc2c(c1)OCO2)N1CCN(Cc2ccco2)CC1 (stereo not drawn) | 40
Cc1cc2ccccc2n1CCNC(=O)c1cccs1 | 0
CC(C)Cc1nc(C(N)=O)c2[nH]c(=O)n(-c3ccc(F)cc3)c2n1 | 0
O=C(CSc1nnc(-c2ccccc2)o1)N1CCc2ccccc2C1 | 0
O=C(Nc1nccs1)c1ccc(Cl)s1 | 40
Cc1ccccc1N1C(=O)C(Cl)=C(N2CCCCCC2)C1=O | 0
CC1(C)CC(=O)c2sc(NC(=O)c3ccco3)nc2C1 | 0
CNC(=O)COC(=O)c1[nH]c(C)c(C(C)=O)c1C | 0
Cc1c(-c2ccccc2)oc2c(C(=O)OCCN3CCCCC3)cccc2c1=O | 0[10 µg/mL]
COc1ccc2c(c1)c(=O)oc1cc(OCC(=O)N3CCC(C)CC3)ccc12 | 0
CCN1C(=O)C(CC(=O)Nc2ccc(OC)cc2)N(Cc2cccnc2)C1=S (stereo not drawn) | 0
Cc1oc2ccc(OCc3ccc(F)cc3)cc2c1C(=O)O | 0

# Screening data deposited in PubChem by Southern Research Specialized Biocontainment Screening Center.
